Source: PubChem (several laboratories)
Calb FLC: C. albicans growth inhibition with fluconazole, primary screen, CaCi-2 strain, Alamar Blue fluorescence | C. albicans CaCi-2 (fluconazole-resistant clinical isolate) + fluconazole, 48 h | growth inhibition, % (concentration not given with the values) | 0.57% of 300,000 active;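 active means most replicates above 75%; inconclusive means exactly half above 75%; inactive means most below 75%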;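 further: all wells also contain fluconazole at 8 µg/ml as a sub-toxic cotreatment; 0% = median of DMSO wells and 100% = median of geldanamycin control wells; wells of about 8 µL received 7.5 nL stock; the first replicate is given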
B2AR ag: beta2AR agonists driving receptor internalization, primary screen, cell-based, FAP fluorogen, flow cytometry; Beta-2 adrenergic receptor (Homo sapiens), P07550; Am2.2-beta2AR cells; reference of the scale not given here; response, % (no concentration beside the values); 0.43% of 340,000 active; AID 504454, 2011;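 active means response above a set limit, near 3 SD of response in nonfluorescent compounds, cut at about 42% in these data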;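 further: stock transfer was 100 nL into about 11 µL; a reference agonist was the positive control; negative values mostly stem from fluorescent compounds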
A1 inh: caspase 3/7 activation in MEF A1-2A-BIM cells, primary screen, A1 inhibitor project, cell-based, luminescence, HTS | Caspase-Glo 3/7 luminescence, 3 h; percent of clofoctol response, vehicle zero | caspase activation, % (test concentration not listed) | 0.066% of 330,000 active | AID 2462, 2010;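 active means over half of replicate activation scores above 10%, or exactly half above 10 with the replicate mean above 10; inconclusive means replicate mean below 10 yet half the replicates above 10; inactive means over half of replicates below 10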;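 further: wells of about 30 µL received 50 nL stock; many hits fall short of the cut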
T cruzi repl: inhibitors of intracellular T. cruzi growth, primary screen, luminescence, NIH3T3 host cells | T. cruzi beta-gal in NIH3T3, 90 h | inhibition, % (test concentration not listed) | 1.4% of 300,000 active | AID 1885, 2009;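 active means mean inhibition across valid replicates above about 55%, limit read from the data; inconclusive means mean below that limit but half or more replicates reach it; inactive means mean below it, under half of replicates reach it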;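 further: signal also drops with host cell toxicity which is not excluded here; 0% = plate median of DMSO wells and 100% = zero luminescence signal; higher percent means less beta-gal luminescence so fewer parasites; stock transfer was 50 nL into about 50 µL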
LANA-H2A inh: blockers of LANA interaction with H2A/H2B – biochemical, FP readout, HTS, primary screen | Protein LANA1 (Human herpesvirus 8 type P (isolate GK18)), Q9QR71 | inhibition, % (no concentration beside the values) | cell-free LANA-H2A/H2B peptide, fluorescence polarization | 0.6% of 320,000 active | AID 2629, 2010; in the data active means inhibition mostly above about 10%, no sharp cut-off; inactive means mostly below about 6.7%;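 further: stock transfer was 7.5 nL into about 10 µL; 0% = median of vehicle wells and 100% = median of positive control wells; one replicate is shown; the record names a cut of 25% in any replicate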
Target sequence (Q9QR71 whole entry, looked up): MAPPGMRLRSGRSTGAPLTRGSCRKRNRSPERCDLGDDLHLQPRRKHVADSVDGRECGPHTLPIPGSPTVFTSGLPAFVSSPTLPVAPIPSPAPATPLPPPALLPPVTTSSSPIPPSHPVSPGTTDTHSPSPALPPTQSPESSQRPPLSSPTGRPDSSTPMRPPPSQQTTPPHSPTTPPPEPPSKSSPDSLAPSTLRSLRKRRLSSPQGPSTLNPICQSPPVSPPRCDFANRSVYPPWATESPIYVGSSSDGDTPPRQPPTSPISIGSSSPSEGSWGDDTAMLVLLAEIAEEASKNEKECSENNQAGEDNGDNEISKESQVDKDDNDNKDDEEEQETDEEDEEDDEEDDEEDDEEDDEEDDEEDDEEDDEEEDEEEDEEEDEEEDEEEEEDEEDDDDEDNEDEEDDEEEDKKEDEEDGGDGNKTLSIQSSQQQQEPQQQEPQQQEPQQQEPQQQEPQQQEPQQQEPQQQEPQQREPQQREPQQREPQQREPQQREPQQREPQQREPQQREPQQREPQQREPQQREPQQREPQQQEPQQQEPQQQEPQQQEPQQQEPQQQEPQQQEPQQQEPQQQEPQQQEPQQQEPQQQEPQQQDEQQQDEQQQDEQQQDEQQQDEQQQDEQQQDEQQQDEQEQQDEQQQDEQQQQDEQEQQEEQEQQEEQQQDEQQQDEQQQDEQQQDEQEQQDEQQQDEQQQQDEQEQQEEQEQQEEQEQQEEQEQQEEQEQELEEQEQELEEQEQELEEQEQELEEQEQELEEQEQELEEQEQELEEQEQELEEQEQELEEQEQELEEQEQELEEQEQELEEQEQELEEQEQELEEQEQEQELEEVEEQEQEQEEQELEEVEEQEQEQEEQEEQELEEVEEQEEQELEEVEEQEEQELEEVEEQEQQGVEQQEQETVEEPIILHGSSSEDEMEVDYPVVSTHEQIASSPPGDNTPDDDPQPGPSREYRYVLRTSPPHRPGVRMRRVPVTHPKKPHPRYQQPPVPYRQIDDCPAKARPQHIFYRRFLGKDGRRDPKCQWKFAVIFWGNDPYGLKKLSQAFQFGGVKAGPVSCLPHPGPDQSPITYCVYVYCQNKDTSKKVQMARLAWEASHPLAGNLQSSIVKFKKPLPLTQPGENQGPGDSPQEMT
Beta cell apopt: inhibitors of cytokine-induced beta cell apoptosis, primary screen, luminescence; INS-1E cytokine-induced death, ATP luminescence, 48 h; percent of positive-control rescue, neutral wells zero; protection from apoptosis, % (concentration not given with the values); 0.8% of 300,000 active;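 active means all replicates at 75% or more, or half of them and the mean; inconclusive means half reach 75% but not the mean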;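 further: 0% = cytokine-treated negative control wells and 100% = positive control rescue; higher means more ATP so stronger rescue from cytokine killing; wells of about 40 µL received 100 nL stock; the first replicate is given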
ALR inh: inhibitors of human ALR sulfhydryl oxidase, primary screen, biochemical, H2O2 detection, HRP-luminol luminescence, single point | inhibition, % (concentration not given with the values) | AID 485317, 2010 | FAD-linked sulfhydryl oxidase ALR (Homo sapiens), P55789 | purified ALR, DTT oxidation | 3.8% of 290,000 active;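 active means mean and each replicate at 75% or more; inconclusive means only one of the two met; inactive means neither met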;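 further: stock transfer was 7.5 nL into about 7.5 µL; 0% = neutral wells and 100% = wells with inactivated enzyme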
rRNA inh HTS: reduced GFP signal of wild-type E. coli, primary screen, bacterial rRNA inhibitor project, GFP/RFP fluorescence, OD600, single point; AID 720706, 2013; E. coli WT GFP vs humanized-ribosome RFP mutants, 24 h; hits give low values; DMSO median 0, no signal -100; GFP signal change (wild-type ribosome), % (no concentration beside the values); 1.6% of 350,000 active;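 active means significant combined selectivity score with lowered wild-type GFP, culture density cut under 30%, mutant RFP and density less affected; inactive means any of these conditions unmet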; further: one replicate is shown; some compounds called inactive have numbers as strong as hits
rRNA inh HTS OD600: second read-out of rRNA inh HTS, no call of its own (marks repeat the call); OD600 change, %; measured here: OD600 growth;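 optical density of the mix in the first replicate; 0 = DMSO median and -100 = no signal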
rRNA inh HTS RFP: second read-out of rRNA inh HTS, no call of its own (marks repeat the call); RFP signal change, %; measured here: RFP humanized mutant strains;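 first replicate; 0 = DMSO median and -100 = no signal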
* hit, by the source's call; ? = inconclusive; . = no result given.

SMILES	Calb FLC	B2AR ag	A1 inh	T cruzi repl	LANA-H2A inh	Beta cell apopt	ALR inh	rRNA inh HTS	rRNA inh HTS OD600	rRNA inh HTS RFP
O=C1N[C@@H](Cc2ccccc2)C(=O)N2[C@H]1C[C@]1(Br)c3ccccc3N(S(=O)(=O)c3ccc(F)cc3)[C@H]21	-7	-11	1.4	2	-1.6	2	-9	-10	-10	-9.7
CN=C1S/C(=C\c2cc(C)n(-c3ccccc3F)c2C)C(=O)N1C	53	1	-9.9	4	1.5	23	3	.	.	.
CCOC(=O)[C@@H]1[C@H]2COc3ccccc3[C@H]2N2C(=O)N(c3ccc(Cl)cc3)C(=O)[C@]12C	25	2	0.8	-21	7.8	5	-4	-1	-3	-4.3
Cc1cc(-c2nn(-c3ccccc3F)cc2CN(C)CC(O)CO)c(C)s1 (stereo unspecified)	-4	-8	0.3	-10	-5.1	-6	-1	3	-6	1.8
OCC1(Cc2ccccc2)CCN(Cc2cnc(-c3cccc4ccccc34)nc2)CC1	-3	3	-0.1	14	-1.8	-2	-5	-39	-63	17
COc1ccccc1CCC(=O)NCCCn1ccc2ccccc21	5	0	0.0	14	-0.5	3	-26	-9	-24	1.1
Cc1nc2sc(C(c3cccs3)N3CCC4(CC3)OCCO4)c(O)n2n1 (stereo unspecified)	-22	-1	0.9	-13	-1.5	4	-1	0	-7	-1.6
CC(=O)Nc1cc(C(C)C)c(O)c(C(C)C)c1	-2	-4	0.2	-10	0.3	5	23	.	.	.
COC(=O)c1ccccc1NC(=O)N1CSC[C@H]1C(=O)OC	-5	1	-0.2	-1	1.5	-6	-2	.	.	.
Cc1cccc(NC(=O)C2CCN(S(=O)(=O)c3c(C)c(C)cc(C)c3C)CC2)n1	-10	1	0.5	26	-1.5	3	1	-13	-44	1.7
CC(C)CCNC(=O)c1ccc2c(c1)N(Cc1ccccc1)C(=O)CS2=O (stereo unspecified)	2	-14	-0.5	-4	-6.2	-2	-3	-1	-11	2.6
CN(C)S(=O)(=O)c1cccc(NC(=O)CSc2nncn2C)c1	3	-2	0.3	-11	2.8	0	-1	9	3	-2.4
Clc1cccc(CSc2ccc(-c3cccnc3)nn2)c1	12	-8	0.1	0	-10	-1	.	-9	-11	-1.5
CC(=O)c1cccc(NC(=O)C(=O)c2cn(CC(=O)N3CCCCC3)c3ccccc23)c1	-10	-3	-0.2	4	2.1	1	-1	-11	9	1.3
C/C(=N/NC(=O)CNC(=O)c1cccc(F)c1)c1ccc2c(c1)CCCC2	-12	-3	-0.6	-2	-0.8	4	-8	11	11	1.1
CCOc1ccccc1NC(=O)CCS(=O)(=O)c1cccc2nonc12	.	-7	-0.5	.	4.3	-2	-7	.	.	.
C/C(=N\NC(=O)COc1ccc(C(C)(C)C)cc1)c1ccc2c(c1)OCCO2	19	0	0.1	-7	-1.0	-5	-5	-12	-19	-21
CC1(C)CC(=O)c2cc(NC(=O)c3ccccc3)c(=O)oc2C1	1	-6	0.5	-25	3.9	-3	5	-13	-16	-5.0
CCOC(=O)c1[nH]ncc1CN1CCCC(C(=O)c2ccc(C(C)(C)C)cc2)C1 (stereo unspecified)	-25	-1	-1.2	3	-6.1	-3	-14	-21	-23	1.4
Cc1cc(F)ccc1S(=O)(=O)N1CCCOC1CNC(=O)C(=O)NCCc1ccccc1 (stereo unspecified)	1	3	-0.1	-4	-7.3	15	-3	7	6	-0.7
Cc1nn(Cc2ccccc2)c(C)c1/C=N/NC(=O)c1ccncc1	-12	1	0.8	20	-3.2	2	-6	-2	12	7.9
Cc1cc(C)c2sc(N(CCN(C)C)C(=O)c3c(F)cccc3F)nc2c1	-7	-1	0.5	49	-3.2	-5	-18	-37*	-13*	-3.6*
Cc1cc(C)c(NC(=S)N(CCCN2CCOCC2)Cc2cccnc2)c(C)c1	-1	1	-0.2	27	-0.4	-2	-7	18	7	-2.2
COc1cc(C(=O)OCC(=O)NC(=O)NC2CCCCC2)cc(Cl)c1OC	-8	0	1.8	-5	-6.2	.	-8	-6	4	-1.9
Cc1ccc(NNC(=O)C(=O)N2CCCCC2)cc1	7	-4	0.5	43	1.7	.	72	18	21	-5.4
COc1ccccc1OCC(=O)NNC(=O)c1c(-c2ccccc2Cl)noc1C	-21	0	-0.4	-11	0.2	3	-1	5	-3	1.3
COc1cc(C(=O)NNC(=S)NC(=O)c2ccc3c(c2)OCO3)cc(OC)c1OC	-20	0	0.8	-23	0.0	4	.	-26	-38	-7.3
C/C(=N\n1cnnc1)c1ccccc1	-4	5	-0.9	-8	4.4	4	.	19	5	-4.6
CCOc1ncccc1C(=O)NCC1COc2ccccc2O1 (stereo unspecified)	16	-4	0.1	13	-4.0	-2	27	.	.	.
CCOC(=O)C1=C(COC(=O)C2(C)CC2(Cl)Cl)NC(=O)NC1c1ccc(OC)cc1 (stereo unspecified)	5	-2	0.4	-12	3.9	.	-5	-19	-28	-3.5
COc1cccc(C(=O)Nc2ccc3c(c2)CCCN3C(=O)c2cccs2)c1OC	19	16	-2.2	14	0.9	23	3	-39	-57	-1.3
Cc1cccc(NC(=O)CSc2ccc(-c3ccco3)nn2)c1C	0	-7	0.1	13	1.6	4	-14	.	.	.
CCc1c(C)c2cc(Cl)c(O)c(CN(C)C)c2oc1=O	41	3	0.8	7	3.0	-7	23	-3	10	17
COC(=O)C(NC(=O)c1ccco1)(Nc1nc(C)cs1)C(F)(F)F (stereo unspecified)	-2	8	0.4	-15	4.6	0	2	.	.	.
CN(CC(=O)Nc1cc(S(=O)(=O)N2CCOCC2)ccc1Cl)C1CCS(=O)(=O)C1 (stereo unspecified)	0	7	-0.3	10	-8.6	-2	-10	16	12	2.9
CCOC(=O)c1ccc(NC(=O)c2cn(-c3ccccc3)nc2-c2ccncc2)cc1	4	12	0.2	41	-6.8	-5	-5	.	.	.
Cc1nc(COc2ccc(C(=O)NCc3ccccc3CN3CCCCC3)cc2)cs1	.	-1	0.6	.	-6.6	-1	-1	.	.	.
CC(C(=O)NC1CCCC1)N(C(=O)CS(=O)CC(=O)Nc1ccc(F)cc1)c1ccc2c(c1)OCCO2 (stereo unspecified)	4	5	-0.2	5	-1.1	-7	0	2	-4	-8.0
CCOC(=O)CNC(=O)N1CCCC(Cc2ccccc2)(C(=O)OCC)C1 (stereo unspecified)	-1	3	-0.3	5	-0.4	-1	.	0	2	-0.8
O=C(NCC(c1ccco1)N1CCCCC1)c1cccc(S(=O)(=O)Nc2ccccc2Cl)c1 (stereo unspecified)	0	5	0.5	11	-3.0	.	5	1	-5	11
CCOC(=O)c1ccccc1NC(=O)COC(=O)c1ccc(C)c(S(=O)(=O)N2CCOCC2)c1	-11	0	-1.0	1	11	0	-4	.	.	.
CCOC(=O)c1ccc(Nc2ncccc2[N+](=O)[O-])cc1	-3	1	-6.9	-5	-3.5	7	5	4	6	1.4
O=C(CCSc1ccccc1)NCCSc1ccccn1	-21	3	0.4	-5	-0.9	-6	-10	.	.	.
CC(C)(CN1CCOCC1)NS(=O)(=O)c1ccccc1	-2	7	-0.5	-6	-10	.	-4	14	13	0.2
CCN(CC)C(=O)C1=C(C)NC(=S)NC1c1cccs1 (stereo unspecified)	-4	0	0.5	1	3.1	3	-2	6	4	1.0
COCCNC(=O)C1=NOC(Cn2cc(C#N)c(=O)n(C)c2=O)C1 (stereo unspecified)	-6	0	0.2	-3	-1.4	6	-4	8	-5	1.6
NC(=O)c1ccc(NC(=O)COC(=O)CCN2C(=O)c3ccccc3C2=O)cc1	.	-2	0.8	.	-3.1	2	1	.	.	.
Cc1nc(-c2ccc([N+](=O)[O-])cc2)nc2[nH]ccc(=O)c12	7	-16	-4.2	-28	-2.8	-6	-6	15	11	2.1
CCOc1ccc(C(=O)Nc2cccc3nsnc23)cc1[N+](=O)[O-]	-5	-4	-0.4	-13	-2.5	-1	-2	22	19	4.3
O=C(CCCC(=O)OCC(Cl)=C(Cl)Cl)Nc1ccccc1F	-5	7	0.4	3	4.4	-2	-2	-7	-6	-7.7
Next part:
SMILES	Calb FLC	B2AR ag	A1 inh	T cruzi repl	LANA-H2A inh	Beta cell apopt	ALR inh	rRNA inh HTS	rRNA inh HTS OD600	rRNA inh HTS RFP
COC(=O)CN1C(=O)Nc2ccc(C)cc2C1c1ccccc1 (stereo unspecified)	-18	-1	0.0	-7	-3.1	.	.	4	-3	3.1
O=C(CN1c2ccccc2Sc2ccccc21)NNC(=O)Nc1ccc(Cl)c(Cl)c1	6	-1	-0.3	4	4.4	.	-3	-2	-4	8.3
CCOC(=O)c1sc2c(c1C)c(=O)n(CCO)c(=O)n2Cc1ccccc1	3	-3	0.1	13	3.0	15	.	2	6	3.2
COc1ccc(-c2c(C#Cc3ccsc3)c3cc(-c4ccc5[nH]ccc5c4)ccc3n2C)cc1	.	-1	1.2	.	1.5	-1	-9	9	5	2.0
COc1ccc(N2CCN(C(=O)COc3ccc(S(=O)(=O)N4CCOCC4)cc3C)CC2)cc1	0	-6	-0.2	7	1.3	3	43	-3	-11	-1.1
O=C(COC(=O)c1cc(Br)ccc1O)Nc1cc(S(=O)(=O)N2CCCC2)ccc1Cl	-3	10	.	-1	.	.	.	0	4	-2.4
Cc1c(C(=O)Nc2ccc(-c3nnc4n3CCCCC4)cc2)oc2ccc(Br)cc12	0	-13	0.8	61*	-0.1	15	0	.	.	.
CN(C)S(=O)(=O)c1ccc(C(=O)Nc2cccc(S(=O)(=O)NC3=NCCC3)c2)cc1	-1	-2	0.0	-10	-0.4	-7	.	1	2	6.6
O=C(Nc1ncccn1)c1ccc([N+](=O)[O-])cc1[N+](=O)[O-]	3	3	0.1	25	-5.0	2	-22	3	3	5.2
COc1ccc(/C=N/N=C2/NC(=O)C(CC(=O)O)S2)cc1OS(=O)(=O)c1ccccc1 (stereo unspecified)	-3	3	-0.5	6	0.2	-8	0	6	6	1.0
CCOC(=O)N1CCN(C(=O)CCS(=O)(=O)c2ccc(Br)s2)CC1	22	1	0.1	-32	-2.8	1	6	.	.	.
Cc1ccc(C(=O)NCCCNc2ccc(C(F)(F)F)cc2[N+](=O)[O-])cc1	9	-5	0.8	-29	1.3	.	-2	16	6	0.1
CCN(CC)S(=O)(=O)c1ccc2oc(Nc3ccccc3)nc2c1	9	-1	-3.0	22	-4.3	15	-4	-7	-5	0.6
O=C(N/N=C/c1cccs1)c1cccc(NC(=O)c2ccc(Cl)cc2)c1	17	.	?	-8	-3.2	67	-6	3	10	0.4

Some of the compounds tested. The share of hits here may be higher or lower than overall.
